# Vif A3G – HIV-1 Vif–A3G interaction blockers – biochemical, TR-FRET, GST-Vif 1-94, biotin-A3G peptide, dose response retest, primary screen (AID 1117319). TR-FRET GST-Vif / biotin-A3G peptide binding; higher % means a stronger effect; test concentration not given here; strong numbers were not always called active. inhibition, %, or IC50 in µM where a hit was titrated. 0.57% of 260,000 active;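 active = above the screen mean plus three standard deviations and confirmed in dose response; inconclusive = results disagree or hit not tested in dose response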;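 also: Vif residues 1-94 fused to GST binding biotinylated APOBEC3G peptide 110-148; 0% = full assay without inhibitor and 100% = GST in place of GST-Vif; retest series ran down from 100 µM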
# UCH37 inh – inhibitors of human deubiquitinating enzyme UCH37; Q9Y5K5; purified proteasome/UCH37, Ub-AMC cleavage fluorescence; inhibition, % (no concentration beside the values); 0.33% of 330,000 active; AID 588478;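 active = mean of two replicates above 20%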;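 also: 0% = compound-free wells with enzyme and 100% = wells lacking proteasome; stock transfer was 100 nL into about 20 µL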
#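 Schedule: 30 min plus 25 min, room temperature / Material: human UCH37 within purified proteasomes / Technique: AMC fluorescence intensity at 355/460 nm / Buffer or medium: pH 7.4 Tris-HCl (50 mM) with ovalbumin, ATP-MgCl2, DTT / Controls: wells without proteasome as full block, compound-free enzyme plus substrate as uninhibited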
# A1 inh – inhibitors of the anti-apoptotic protein A1, read as caspase activation. caspase activation, % (concentration not given with the values). 0.066% of 330,000 active. MEF A1-2A-BIM cells, Caspase-Glo 3/7 luminescence, 3 h; percent of clofoctol response, vehicle zero. AID 2462;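 active = over half of replicate activation scores above 10%, or exactly half above 10 with the replicate mean above 10; inconclusive = replicate mean below 10 yet half the replicates above 10; inactive = over half of replicates below 10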;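 also: wells of about 30 µL received 50 nL stock; many hits fall short of the cut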
# Beta2AR agonist – activates human beta-2 adrenergic receptor causing internalization. P07550. Am2.2-beta2AR cells, FAP receptor internalization, flow cytometry; reference of the scale not given here. response, % (test concentration not listed). 0.43% of 340,000 active;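 active = response above a set limit, near 3 SD of response in nonfluorescent compounds, cut at about 42% in these data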;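 also: stock transfer was 100 nL into about 11 µL; a reference agonist was the positive control; negative values mostly stem from fluorescent compounds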
# E coli growth – blocks Escherichia coli growth; 0.21% of 330,000 active; AID 1053175; OD600, 23 h; stronger effect = lower value; OD600 absorbance (no concentration beside the values);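 active = OD600 absorbance below the run mean of sample wells minus 3.6 SD, in any replicate, cut at about 0.56 in these data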;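 also: stock transfer was 300 nL into about 60 µL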
# HNF4A DNA FP – change in binding of human HNF4 alpha to DNA; P41235; HNF4a-FITC DNA binding, fluorescence polarization, 1 h; activity change, % at 10 µM; 0.3% of 360,000 active; AID 1224865; in the data active = activity change above about 30%, passing the limit was not always enough;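 also: controls were the assay level and a saturating level of protein; the project sought stronger binding though the title names inhibitors; some compounds called inactive have numbers as strong as hits; positive values seem to mean higher polarization but the record does not say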
# LANA-H2A inh – blocks KSHV LANA binding to histone H2A/H2B. Q9QR71. cell-free LANA-H2A/H2B peptide, fluorescence polarization. inhibition, % (concentration not given with the values). 0.6% of 320,000 active; in the data active = inhibition mostly above about 10%, no sharp cut-off; inactive = mostly below about 6.7%;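 also: stock transfer was 7.5 nL into about 10 µL; 0% = median of vehicle wells and 100% = median of positive control wells; one replicate is shown; the record names a cut of 25% in any replicate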
# Target sequence (Q9QR71 whole entry, looked up): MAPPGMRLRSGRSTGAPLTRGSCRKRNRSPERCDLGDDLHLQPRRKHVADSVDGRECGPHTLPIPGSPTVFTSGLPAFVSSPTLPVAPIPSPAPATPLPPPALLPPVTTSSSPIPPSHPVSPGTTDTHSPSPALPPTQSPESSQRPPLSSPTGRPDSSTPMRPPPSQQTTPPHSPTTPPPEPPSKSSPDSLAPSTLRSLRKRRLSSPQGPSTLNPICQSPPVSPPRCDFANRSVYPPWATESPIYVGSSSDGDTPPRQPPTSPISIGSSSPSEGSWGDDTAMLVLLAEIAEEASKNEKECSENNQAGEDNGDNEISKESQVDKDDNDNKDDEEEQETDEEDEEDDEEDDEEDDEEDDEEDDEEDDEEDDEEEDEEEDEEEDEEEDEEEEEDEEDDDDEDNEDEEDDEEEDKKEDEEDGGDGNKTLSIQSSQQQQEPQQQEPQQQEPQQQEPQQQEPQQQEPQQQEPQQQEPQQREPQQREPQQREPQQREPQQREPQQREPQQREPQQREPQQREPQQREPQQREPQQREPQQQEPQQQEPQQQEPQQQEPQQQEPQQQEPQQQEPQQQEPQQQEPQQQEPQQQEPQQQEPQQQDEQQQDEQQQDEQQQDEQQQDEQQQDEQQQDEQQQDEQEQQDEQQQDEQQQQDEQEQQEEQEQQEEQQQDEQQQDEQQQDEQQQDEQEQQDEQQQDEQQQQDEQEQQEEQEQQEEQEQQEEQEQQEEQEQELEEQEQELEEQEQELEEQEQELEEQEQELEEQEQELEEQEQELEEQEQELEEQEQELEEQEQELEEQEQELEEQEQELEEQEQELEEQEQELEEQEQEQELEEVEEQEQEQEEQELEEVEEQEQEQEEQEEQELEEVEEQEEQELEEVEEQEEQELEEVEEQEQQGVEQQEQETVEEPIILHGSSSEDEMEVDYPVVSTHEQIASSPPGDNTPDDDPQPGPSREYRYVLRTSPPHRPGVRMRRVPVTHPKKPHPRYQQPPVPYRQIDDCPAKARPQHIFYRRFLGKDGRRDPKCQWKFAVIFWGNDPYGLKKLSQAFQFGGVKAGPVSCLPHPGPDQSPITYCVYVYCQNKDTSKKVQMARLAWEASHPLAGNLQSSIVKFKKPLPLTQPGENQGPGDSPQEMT
# An asterisk follows results filed as active; i = inactive; ? = inconclusive; . = no result given; + = active, no number; & = joins results of further samples.
SMILES,Vif A3G,UCH37 inh,A1 inh,Beta2AR agonist,E coli growth,HNF4A DNA FP,LANA-H2A inh
CC1(C)CC(=O)C(C=NCCN2CCN(CC(=O)Nc3ccc(F)cc3)CC2)=C(O)C1,2%,5.4,-1.1,-7,0.67,1.8,-7.5
Cc1ccc(OCC(O)CN2CC3(C)CC2CC(C)(C)C3)cc1 (stereo not drawn),.,0.3,0.2,1,0.66,2.4,-2.0
O=C(NC(=O)c1ccccc1)Nc1ccccc1O,-3%,3.7,-5.7,-50,0.65,5.9,-7.3
COc1ccc(NC(=O)Nc2ccc(N3CCOCC3)c3nonc23)c(OC)c1,.,5.2,0.1,-6,0.68,15,-1.1
Cc1ccc2cc3cc(C(=O)NCCCN4CCCC4)oc3nc2c1,-1%,i,-0.8,8,0.67,-1.5,-3.5
O=C(COc1ccc(Cl)cc1)Nc1nc(-c2cccs2)cs1,?,-2.3,-0.3,0,0.68,1.4,0.5
O=C(CNC(=O)c1ccc(Br)cc1)NCC(=O)OCC(=O)c1ccc(F)cc1,.,0.5,-2.3,-2,0.73,-2.7,1.0
CC1CCN(S(=O)(=O)c2ccc3c(c2)N(CC(=O)NCCCOC(C)C)C(=O)CO3)CC1,.,4.2,0.2,0,0.72,3.0,-2.4
Nc1nonc1-n1nnc(C(=O)N/N=C/c2ccccc2F)c1CN1CCOCC1,-5%,.,0.5,-4,.,6.6,1.3
CC(=O)Nc1ccc(S(=O)(=O)N2CCC(C(=O)NCCC(=O)NCc3ccccc3)CC2)cc1,1%,1.8,0.9,-9,0.7,3.1,-3.5
CC1(C)Cc2c(cnn2-c2cccc(F)c2)C(NC(=O)CN2CCCC2=O)C1 (stereo not drawn),-8%,0.8,-0.1,0,0.66,1.7,2.1
COc1cccc(NC(=S)N(C)C2CCN(C)CC2)c1,-19%,3.2,0.1,-6,0.67,3.2,-3.1
CCOC(=O)C1C(=O)NC(N2CCCCC2)=NC1c1ccccc1 (stereo not drawn),-5%,5.3,0.9,1,0.74,-2.8,-4.8
C=CCN(c1ccc(C(=O)N2CCCC2)cc1)S(C)(=O)=O,-6%,1.3,0.6,2,0.65,-0.1,-2.7
O=C1NC(CCc2ccccc2)C(=O)N1CCOc1cccc(Br)c1 (stereo not drawn),9%,4.3,1.1,3,0.66,-2.3,-1.9
COC(=O)c1nn(C23CC4CC(CC(C4)C2)C3)c2c1C(=O)N(c1ccc(F)cc1)C2=O,0%,0.4,0.1,-5,0.76,1.8,0.9
Cc1cc(C)cc(C(=O)NCC(=O)N2CCN(c3cccc(Cl)c3)CC2)c1,12%,5.4,0.5,0,0.64,-1.0,-1.3
Oc1ccccc1C=NCC(O)c1ccccc1 (stereo not drawn),22%,3.3,0.1,-1,0.7,-1.4,3.3
COc1ccc2cc(CN(Cc3ccco3)C(=S)NCC3CCCO3)c(=O)[nH]c2c1 (stereo not drawn),-23%,0.3,-0.4,-11,0.73,-0.7,3.0
Cc1oc(CSCCSCc2cc(C(=O)O)c(C)o2)cc1C(=O)O,.,-1.6,0.6,-3,0.7,0.5,-1.8
CCC(=O)N1CCN(c2ccccc2NC(=O)COc2ccccc2Cl)CC1,3%,2.9,-0.9,5,0.65,-0.5,-0.1
COc1ccc(CC(=O)Nc2ccccc2C(=O)N2CCOCC2)cc1,.,0.8,0.2,1,0.67,-0.7,6.1
CC1CCN(C(=O)CSc2nnc3ccc(-c4cccnc4)nn23)CC1,-6%,-10,0.3,-6,0.61,2.1,4.8
COc1cccc(-c2nc(CS(=O)(=O)CC(=O)NC3CCCc4ccccc43)c(C)o2)c1 (stereo not drawn),-2%,5.6,0.9,13,0.74,-3.8,-0.3
Oc1ccc(N2CCN(C(=S)NCc3ccccc3)CC2)cc1,?,1.9,1.0,2,0.66,-0.3,-0.1
# (more compounds)
SMILES,Vif A3G,UCH37 inh,A1 inh,Beta2AR agonist,E coli growth,HNF4A DNA FP,LANA-H2A inh
Cn1ccnc1/C(=N\NC(=O)c1ccccc1)c1cccc([N+](=O)[O-])c1,-6%,.,0.3,-5,.,1.9,-0.3
COc1cc2c(=O)n(-c3ccc(C)cc3)c(=O)n(CC(=O)c3ccc4c(c3)OCO4)c2cc1OC,-8%&-1%,-0.4,-0.8,-3,0.75,0.0,-2.8
Cc1ccc(Nc2nc(C(=O)NCc3ccco3)cs2)cc1,78µM*,1.7,-0.1,4,0.66,0.3,-0.6
Fc1cccc(F)c1CN1CCN(c2ncccn2)CC1,6%,0.2,-0.8,-10,0.71,2.1,1.3
Cc1ccc2oc(-c3ccc(NC(=O)c4ccncc4)cc3O)nc2c1,-2%,.,1.0,8,.,14,0.9
Cc1cc(S(=O)(=O)N2CCCOC2CNC(=O)C(=O)NCCCN2CCOCC2)ccc1F (stereo not drawn),1%,-2.4,0.3,6,0.66,3.7,2.0
Cc1cc(NC(c2cccnc2)c2ccc3cccnc3c2O)no1 (stereo not drawn),28%,-1.1,-0.4,10,0.62,-2.2,7.5
CN1Cc2ccccc2CC1CNCc1c(C(=O)N2CCCC2)nc2ccccn12 (stereo not drawn),.,1.5,1.2,-3,0.69,1.5,2.2
C=C1C(=O)C2=CC1CCC(=O)C1(C)CCC(OC(C)=O)C(C)(C)C1CC2O (stereo not drawn),37%,.,.,2,.,1.4,.
N#CC1=C(N)N2C(=C(C#N)C1c1ccccc1)Sc1ccccc12 (stereo not drawn),-11%,.,1.1,.,.,.,-1.2
CCOC(=O)C1CCCN(S(=O)(=O)NC[C@H]2O[C@@H](n3cnc4c(N)ncnc43)[C@H](O)[C@@H]2O)C1 (stereo partly drawn),-2%,.,-0.1,-6,.,2.4,+
O=C(Nc1ccc2c(c1)oc1ccccc12)c1ccc2c(c1)OCO2,6%,-15,-4.1,0,0.72,2.8,-0.9
O=C(CN1C(=O)/C(=C\c2cccc(Br)c2)Oc2ccccc21)NCCCN1CCOCC1,-5%,i,0.8,27,0.62,2.8,1.7
Cc1ccc(CN2CCN(Cc3ccon3)CC2CCO)cc1 (stereo not drawn),-3%,1.7,0.4,-7,0.7,-4.6,6.2
CCCOc1ccc(C2/C(=C(/O)c3ccccc3)C(=O)C(=O)N2CCCN(C)C)cc1OC (stereo not drawn),.,4.3,0.9,-12,0.76,1.1,1.6
O=C(c1cnn2c(C(F)(F)F)cc(-c3ccccc3)nc12)N1CCCCC1c1cccnc1 (stereo not drawn),.,-34,1.1,2,0.72,0.7,-1.7
NS(=O)(=O)c1ccc2nc(NC(=O)c3ccc4ncsc4c3)sc2c1,.,.,0.3,3,.,2.9,5.3
C/C(=N\NC(=O)CSc1nc(C)cc(C)n1)c1ccc2c(c1)OCCO2,-8%,.,-0.5,-1,.,4.0,-5.4
CCOC(=O)N1CCC(NC(=O)c2ccc3c(c2)N(Cc2ccc(F)cc2)CCS3)CC1,13%,-50,-1.3,4,0.76,-1.4,1.4
COc1ccc(N2CCN(C(CNC(=O)C(=O)NCc3cccs3)c3ccco3)CC2)cc1 (stereo not drawn),4%,-1.4,1.3,0,0.73,0.9,2.0
Cc1ccc(NC(=O)C2CCN(S(=O)(=O)c3ccc4ccccc4c3)CC2)nc1,6%,2.2,.,0,0.68,6.4,.
OCC1(Cc2cccc(C(F)(F)F)c2)CCN(Cc2cc(F)cc(F)c2)CC1,.,1.7,-0.1,1,0.67,5.7,-6.9
CNC(=O)c1cc(S(=O)(=O)N2CC(C)OC(C)C2)ccc1N1CCCCC1 (stereo not drawn),.,1.6,.,2,0.64,1.4,.
c1ccc2c(c1)CCOC2CNCCCN1CCCCC1 (stereo not drawn),0%,0.1,.,0,0.73,0.1,-5.6
Cc1ccnc(N2CCC(C(=O)NC3CCCCCC3)CC2)n1,-6%,-9.2,0.2,2,0.71,4.1,1.8
# The results go on:
SMILES,Vif A3G,UCH37 inh,A1 inh,Beta2AR agonist,E coli growth,HNF4A DNA FP,LANA-H2A inh
O=C(NCCOC(=O)c1cccs1)c1cccnc1,5%,0.2,0.8,-1,0.72,-3.4,0.4
CCOc1ccc(S(=O)(=O)Nc2ccc(C(=O)NN)cc2)cc1,-4%,1.4,1.3,-1,0.71,-1.4,1.5
C=CCn1c(SCc2ccc3c(c2)OCO3)nc2scc(-c3ccco3)c2c1=O,20%,-1.5,-0.4,6,0.75,-24,2.1
Cc1ccc(CCNC(=O)Cn2cccc2)cc1,-2%,4.6,?,17,0.68,0.3,-3.5
C/C=C/C=C/C(=O)N1CC[C@]23c4ccccc4N[C@H]4N(C)c5cccc6c5[C@]42CCN([C@H]6C2OC2(C)C)[C@H]13 (stereo partly drawn),.,4.1,-0.4,-1,0.72,2.4,3.3
CCOc1ccccc1NC(=O)CN1CCC(NC(=O)Nc2ccccc2)CC1,.,0.9,-0.2,12,0.59,-0.1,-2.8
O=C(CSCc1ccccc1)NNc1c(F)c(F)cc(F)c1F,.,2.5,-0.2,-3,0.68,0.6,-2.3
Cc1ccc2c(c1)COc1c3ccc(C(=O)N[C@@H](C)CO)cc3nn1-2,.,-26,-1.7,1,.,0.0,0.0
Cc1cccc(NC(=O)c2nc[nH]c2C(=O)N[C@@H](Cc2ccccc2)C(=O)OCc2ccccc2)c1,0%,5.1,0.4,17,.,1.4,-10
CC(OC(=O)c1cnc(Cl)c(Cl)c1)C(=O)NCc1ccccc1 (stereo not drawn),-5%,-0.5,0.9,5,0.63,-3.4,-2.8
O=C(CSc1nc2ccc(Cl)cc2[nH]1)N1CCN(C(=O)c2ccco2)CC1,.,0.9,0.1,-6,0.72,1.5,-1.1
Cc1ccc(Cl)cc1NC(=O)CSc1sc2c(O)cc(=O)[nH]c2c1C#N,.,1.8,0.3,-3,0.69,-6.0,3.3
COc1cccc(N2CCN(C(=O)c3ccc(CS(=O)c4ccc(C)cc4)o3)CC2)c1 (stereo not drawn),.,.,1.2,15,.,-0.8,-2.3
Cc1cccc(CC(=O)c2c[nH]c3ccccc23)c1,4%,0.9,-0.2,-1,0.7,-3.2,0.4
CC(=O)Nc1cccc(NC(=O)CSc2nnc3ccc(-c4ccccn4)nn23)c1,-7%,2.8,-0.5,3,0.68,1.9,-0.6
O=C(CN1CCc2ccccc2C1)Nc1cc(S(=O)(=O)N2CCOCC2)ccc1N1CCOCC1,-7%,3.9,1.3,12,0.69,2.8,-4.3
Cc1ccccc1CC1(CO)CCCN(Cc2nc(-c3cccs3)oc2C)C1 (stereo not drawn),-2%,3.4,0.5,-1,0.69,1.0,-0.8
Cc1cccc(N2CCN(C(=O)c3cc(S(=O)(=O)N4CCOCC4)cn3C)CC2C)c1 (stereo not drawn),4%,0.5,0.1,2,0.63,-1.9,0.6
O=C(Nc1cnn(C23CC4CC(CC(C4)C2)C3)c1)c1cc(-c2ccccc2)on1,0%,-8.5,0.4,11,0.67,-0.2,3.0
CCOC(=O)C(=CNc1ccc(C#N)cc1)C(=O)OCC,.,.,0.0,-5,.,1.4,-2.5
CS(=O)(=O)c1ccc2nc(NC(=O)C3CC(=O)N(c4ccccc4)C3)sc2c1 (stereo not drawn),-3%,4.4,-0.3,1,0.63,-2.1,-6.5
NS(=O)(=O)c1cc2c(cc1Cl)NC(C1CC3C=CC1C3)NS2(=O)=O (stereo not drawn),.,-0.2,0.3,-5,0.67,-1.5,-0.1
Cc1nn(-c2ccccc2)c(Cl)c1C(=O)NCC(=O)O,-8%,-4.1,0.2,-3,0.7,-3.3,-2.4
NS(=O)(=O)c1ccc(NC(=S)NCC2CCCO2)cc1 (stereo not drawn),5%,3.2,-1.0,-2,0.68,-4.8,0.4
Cc1ccc(CNC(=O)Cn2c(=O)n(CC(=O)N3CCCCC3)c(=O)c3sccc32)cc1,-2%,1.7,0.9,2,0.71,4.0,4.0
CCCCc1nnc(NC(=O)c2oc3ccccc3c2C)s1,-7%,3.8,0.0,3,0.7,-2.8,2.5

# Source: PubChem

# Random draw from the library; 2.1% or so of the library scored in one or more.
